# FPR binder: binds the human formylpeptide receptor FPR; FPR-expressing cells, fluorescent ligand binding, flow cytometry; 24,000 compounds, 0.74% hits; AID 440; P21462; inhibition, %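 (tested at 6.7 µM)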;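 further: 0% = buffer wells and 100% = receptor blocker peptide wells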
# Target sequence (P21462 whole entry, looked up): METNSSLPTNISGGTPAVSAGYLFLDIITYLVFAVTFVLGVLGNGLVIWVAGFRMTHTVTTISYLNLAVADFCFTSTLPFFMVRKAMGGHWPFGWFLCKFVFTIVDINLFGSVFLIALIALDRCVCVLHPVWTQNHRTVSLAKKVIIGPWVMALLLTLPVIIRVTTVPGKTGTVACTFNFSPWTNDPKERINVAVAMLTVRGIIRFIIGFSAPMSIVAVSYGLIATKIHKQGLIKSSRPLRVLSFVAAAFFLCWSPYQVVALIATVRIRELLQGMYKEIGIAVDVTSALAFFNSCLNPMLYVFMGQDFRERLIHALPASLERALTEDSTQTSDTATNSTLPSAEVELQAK
# VCAM-1 down imaging: inhibitors of TNFa-induced VCAM-1 surface display, imaging, high-content imaging, pooled HUVEC, TNFa stimulus (AID 456); HUVEC TNFa-induced VCAM-1 surface expression, immunofluorescence imaging; numbers were filed only for top-ranked candidate wells; one-dose inhibition, % at 5 µM; IC50 in µM for titrated hits; 10,000 compounds, 0.2% hits;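 active means top tenth filtered wells with inhibition above zero that passed visual or statistical confirmation; inactive means the rest, including hits rejected on review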;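 further: 0% = stimulated vehicle wells and 100% = unstimulated cells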
# FPRL1 ligand: binds the human formylpeptide receptor-like-1 FPRL1 | FPRL1-expressing cells, fluorescent ligand binding inhibition, flow cytometry | AID 441 | P25090 | 24,000 compounds, 0.3% hits | inhibition, %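 (tested at 6.7 µM)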;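 further: 0% = buffer alone and 100% = receptor blocker peptide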
# Target sequence (P25090 whole entry, looked up): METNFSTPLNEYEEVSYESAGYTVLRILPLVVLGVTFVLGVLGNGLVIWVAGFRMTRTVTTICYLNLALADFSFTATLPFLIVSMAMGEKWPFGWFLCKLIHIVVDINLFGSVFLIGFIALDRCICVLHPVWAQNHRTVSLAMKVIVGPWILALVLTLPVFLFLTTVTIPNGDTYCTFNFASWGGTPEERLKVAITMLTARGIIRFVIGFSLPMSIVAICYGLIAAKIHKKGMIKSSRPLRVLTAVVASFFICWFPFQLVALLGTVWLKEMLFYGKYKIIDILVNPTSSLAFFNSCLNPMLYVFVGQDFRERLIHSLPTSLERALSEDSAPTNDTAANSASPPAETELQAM
# VCAM-1 augmentation: boosters of cytokine-driven VCAM-1 levels – imaging, high-content imaging, pooled HUVEC, TNFa stimulus (AID 457). calls only. Pooled HUVEC, TNFa-induced VCAM-1 immunofluorescence imaging; hits of this screen are not shown here. 10,000 compounds, 0.2% hits;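 active means a top-ranked rise in VCAM-1 staining upheld on image or statistical review; inactive means the rest, including candidates rejected on review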;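 further: compounds tested at 5 µM in the well; cells exposed to compound for 24 hours before fixing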
# VCAM-1 inhibition: inhibitors of TNFa-induced VCAM-1 surface display, cell-based, plate reader, pooled HUVEC, TNFa stimulus (AID 454); inhibition, % at 5 µM; 10,000 compounds, 0.2% hits; HUVEC TNFa-induced VCAM-1 surface immunofluorescence, plate reader; numbers were filed only for top-ranked candidate wells;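 active means compound among top-ranked inhibitors of TNF-induced VCAM-1 adhesion protein staining, with the hit upheld by image or statistical review; inactive means the rest, including hits rejected on review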;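 further: 0% = TNFa with vehicle and 100% = cells without TNFa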
# Numbers without * were called inactive; i = inactive; . = no result given.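 How the source made its calls, unless noted: active means mean above 30%; inconclusive means self-fluorescent; inactive means the rest.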 This is a subset, so the mix of outcomes need not match the whole.
FPR binder	VCAM-1 down imaging	FPRL1 ligand	VCAM-1 augmentation	VCAM-1 inhibition	mol
7	i	3	i	i	COc1ccc(C(=O)CSc2nc(C)cc(=O)[nH]2)cc1
2	.	8	.	.	O=C1c2cccnc2C(O)N1Cc1cccs1 (stereo unspecified)
3	.	6	.	.	CCOC1(OCC)N=C(N)C2(C#N)C(c3ccc(NC(C)=O)cc3)C12C#N (stereo unspecified)
2	.	1	.	.	O=C(CCCn1c(=O)[nH]c2ccccc2c1=O)NC1CCCCCC1
-2	.	5	.	.	O=C(NCc1cccs1)C1CCC(CNS(=O)(=O)c2cccs2)CC1 (stereo unspecified)
1	.	6	.	.	COc1cccc(NC(=O)Cn2nnc(C(=O)Nc3ccccc3)c2N)c1
-9	i	-6	i	i	COc1ccc(OC)c(C2=NOC(C(=O)Nc3c(C)n(C)n(-c4ccccc4)c3=O)C2)c1 (stereo unspecified)
4	.	-4	.	.	COc1ccc(-n2c(CNC(=O)c3cc(OC)c(OC)c(OC)c3)n[nH]c2=S)cc1
-4	.	0	.	.	Cc1ccc(Nc2cc(=O)n(C3CCCCC3)c(=O)[nH]2)cc1C
4	.	-2	.	.	Cc1nonc1NC(=O)OC1CCCCC1
-2	i	0	i	i	CN(C)C(=O)N1CCC(C(=O)NC2CCCCCCC2)CC1
4	.	7	.	.	COc1ccc(NC(=O)CN2CCN(CC(=O)Nc3ccccc3Cl)CC2)cc1
4	.	-6	.	.	Cc1ccccc1CN1CCCNC1=O
0	.	5	.	.	Cn1c(=O)oc2cc(S(=O)(=O)N3CCc4ccccc4C3)ccc21
-19	.	-8	.	.	CCc1cc2c(=O)c(-c3nc4ccccc4n3C)c(C)oc2c(CN(CC)CC)c1O
2	i	-1	i	i	CC1CCCCN1CCNC(=O)C1CCN(S(=O)(=O)c2cccc3cccnc23)CC1 (stereo unspecified)
2	.	2	.	.	O=C(c1cccc(F)c1)N1C2C=CC(C2)C1(C(F)(F)F)C(F)(F)F (stereo unspecified)
0	i	-4	i	i	CCCCN(C)C(=O)c1ccc(CS(=O)(=O)c2ccccc2C)o1
1	.	-5	.	.	O=C(CCCCCN1C(=O)c2ccccc2C1=O)Nc1ccc(S(=O)(=O)N2CCCCC2)cc1
-4	.	5	.	.	O=C(c1ccccc1S(=O)(=O)NCc1ccccc1)N1CCCCC1
-8	i	2	i	i	O=C(NC1CCCCCC1)C1CCCN(S(=O)(=O)c2cccs2)C1 (stereo unspecified)
2	102%	-2	i	101*	Cn1c(=O)cc(OCCCC(=O)N2CCCCC2)c2ccccc21
-2	.	-4	.	.	CCOC(=O)N1CCN(CCC(=O)Nc2ccc(OC(F)(F)F)cc2)CC1
-3	i	3	i	i	O=C(CCCn1c(=S)[nH]c2ccccc2c1=O)N1CCCCC1
1	.	2	.	.	CCOC(=O)C(C)Sc1ncnc2c1nnn2-c1ccc(F)cc1 (stereo unspecified)
-1	i	1	i	i	O=C(CN(Cc1ccco1)C(=O)c1cc(=O)[nH]c2ccccc12)Nc1ccccc1Br
4	.	6	.	.	CCN(CC)S(=O)(=O)c1ccc2[nH]cc(C(=O)NCCN3CCCCCC3)c(=O)c2c1
-4	.	-2	.	.	COc1ccc(-c2noc(-c3ccccc3F)n2)cc1
-6	i	-3	i	i	Cc1cc(NC(=O)c2ccc3nc(-c4ccccc4)c(-c4ccccc4)nc3c2)no1
1	i	2	i	i	COc1cccc(C2C(C#N)=C(N)OC3=C2C(=O)CCC3)c1OC(=O)c1ccco1 (stereo unspecified)

# Five consecutive compounds from above, for reference:
FPR binder	VCAM-1 down imaging	FPRL1 ligand	VCAM-1 augmentation	VCAM-1 inhibition	mol
1	.	6	.	.	COc1cccc(NC(=O)Cn2nnc(C(=O)Nc3ccccc3)c2N)c1
-9	i	-6	i	i	COc1ccc(OC)c(C2=NOC(C(=O)Nc3c(C)n(C)n(-c4ccccc4)c3=O)C2)c1 (stereo unspecified)
4	.	-4	.	.	COc1ccc(-n2c(CNC(=O)c3cc(OC)c(OC)c(OC)c3)n[nH]c2=S)cc1
-4	.	0	.	.	Cc1ccc(Nc2cc(=O)n(C3CCCCC3)c(=O)[nH]2)cc1C
4	.	-2	.	.	Cc1nonc1NC(=O)OC1CCCCC1

# The main list resumes with the 5 entries that preceded the break.
FPR binder	VCAM-1 down imaging	FPRL1 ligand	VCAM-1 augmentation	VCAM-1 inhibition	mol
-1	i	1	i	i	O=C(CN(Cc1ccco1)C(=O)c1cc(=O)[nH]c2ccccc12)Nc1ccccc1Br
4	.	6	.	.	CCN(CC)S(=O)(=O)c1ccc2[nH]cc(C(=O)NCCN3CCCCCC3)c(=O)c2c1
-4	.	-2	.	.	COc1ccc(-c2noc(-c3ccccc3F)n2)cc1
-6	i	-3	i	i	Cc1cc(NC(=O)c2ccc3nc(-c4ccccc4)c(-c4ccccc4)nc3c2)no1
1	i	2	i	i	COc1cccc(C2C(C#N)=C(N)OC3=C2C(=O)CCC3)c1OC(=O)c1ccco1 (stereo unspecified)
6	.	3	.	.	CC(O)C(=O)NCCOCCOCCNC(=O)C(C)O (stereo unspecified)
-1	i	0	i	i	Cc1nc2ncnn2c(C)c1CCC(=O)NCCCN1CCN(c2cccc(Cl)c2)CC1
0	.	3	.	.	Nc1nc(C(=O)N2CCOCC2)nn1C(=O)c1ccc(Cl)cc1
-2	.	4	.	.	CCOC(=O)C1CCCN(C(=O)c2sc3nc(-c4ccc(OC)cc4)cn3c2C)C1 (stereo unspecified)
-2	i	-4	i	i	CCCCc1nc2ccccc2n2cc3c(=O)n(C)c(=O)n(C)c3c12
3	.	-5	.	.	O=C1NC2(CCCCC2)N=C1c1ccccc1
3	.	7	.	.	COc1ccc(CN2CC(C(=O)N3CCOCC3)CC2=O)cc1 (stereo unspecified)
-4	i	-6	i	i	O=C(NC1CCCCC1)C(c1ccccc1)N(Cc1ccco1)C(=O)Cn1cnc2ccccc21 (stereo unspecified)
5	i	-6	i	i	Cc1c(C)n(C(=O)CN2CCN(c3ccccn3)CC2)c2ccccc12
1	.	-1	.	.	CCOC(=O)N1CCN(c2cc(=O)n(Cc3ccc(F)cc3)c(=O)[nH]2)CC1
-2	i	4	i	i	Clc1ccccc1-c1nnc2sc(-c3ccccn3)nn12
-8	.	0	.	.	Cc1nn(Cc2ccc(Cl)c(Cl)c2)c(C)c1NC(=O)c1cc(-c2ccc3c(c2)OCO3)on1
1	i	5	i	i	Cc1cccc(N2CCN(Cc3c(C)n(C)n(-c4ccccc4)c3=O)CC2)c1C
2	.	-1	.	.	CCCn1c(=S)[nH]c2cc(C(=O)N3CCCC(C(=O)OCC)C3)ccc2c1=O (stereo unspecified)
1	i	-5	i	i	CCC1CCCCN1c1nc(-c2ccncc2)nc2ccccc12 (stereo unspecified)
-1	.	-3	.	.	O=C(NCc1ccco1)C1CCN(S(=O)(=O)c2cccc3cccnc23)CC1
8	i	-5	i	i	CCCCc1c(O)nc(SCC(=O)c2ccccc2)[nH]c1=O
-10	i	-6	i	i	Cc1ccccc1OCc1nc2ccccc2c(=O)n1/N=C/c1ccco1
2	.	3	.	.	COC(=O)C(C)Sc1ccc2nnc(-c3ccc(F)cc3)n2n1 (stereo unspecified)
-4	i	2	i	i	O=C(CCN1C(=O)COc2ccccc21)N1CCN(c2ccccn2)CC1
-3	.	-5	.	.	COc1cc(S(=O)(=O)N2CCN(Cc3ccc4c(c3)OCO4)CC2)c(C)cc1C
3	.	-10	.	.	CCCOc1ccc(C2C(=O)N(C3CCCCC3)CC(=O)N2C2CC2)cc1OC (stereo unspecified)
0	i	1	i	i	Cc1ccccc1OCc1nnc2n1CC(C)S2 (stereo unspecified)
4	i	4	i	i	COc1ccc(/C=N/O)cc1COc1ccc(NC(C)=O)cc1
-3	.	2	.	.	O=C(NCc1ccc(F)cc1)C1CCCN(S(=O)(=O)c2cccnc2)C1 (stereo unspecified)
9	.	7	.	.	CCOc1ccc2nnnn2n1
1	.	12	.	.	CCOC(=O)c1[nH]c(C)c(C(=O)Nc2ccc(C)c(F)c2)c1C
-4	i	0	i	i	CN(C)CCNc1oc(-c2ccccc2F)nc1C#N
6	i	-2	i	i	Cc1ccc(-c2c3c(=O)n(C)c(=O)n(C)c3cn2CCCN2CCOCC2)cc1
-3	.	-1	.	.	CCOc1ccc(-n2c(SC(C)C(=O)OC)nc3c(c2=O)SCC3)cc1 (stereo unspecified)
-4	i	10	i	i	O=C1CC(c2ccc(S(=O)(=O)N3CCN(c4ccccc4)CC3)cc2)CN1 (stereo unspecified)
7	i	0	i	i	COc1ccc(OCCC(=O)NCc2ccccc2)cc1
-2	.	1	.	.	O=C(Cn1ncc2c(=O)oc3ccccc3c21)NCCC1=CCCCC1
3	.	3	.	.	O=C1CC(c2ccccc2)CN1S(=O)(=O)c1ccccc1 (stereo unspecified)
13	.	-12	.	.	O=C(C1=C(O)C(=O)N(CCCN2CCOCC2)C1c1ccccn1)c1cc2ccccc2o1 (stereo unspecified)
4	.	-1	.	.	CCOC(=O)C1CCCN(Cc2nc(N)nc(Nc3ccccc3OC)n2)C1 (stereo unspecified)
-7	.	-2	.	.	O=C(CCS(=O)(=O)c1cccc2nsnc12)N1CCN(C(=O)c2ccco2)CC1
0	i	3	i	i	Cc1ccccc1C(=O)N1CCC(C(=O)Nc2ccc(S(=O)(=O)N3CCCC3)cc2)CC1
-3	i	-2	i	i	CCOC(=O)c1c(C)oc2ccc(O)c(CN(C)C)c12
4	.	-4	.	.	COc1cccc(C2C=C(c3cccs3)Nc3ncnn32)c1OC (stereo unspecified)
-3	i	0	i	i	C=CCn1c(SCn2nnc3ccccc3c2=O)nnc1-c1ccc(Br)cc1
4	i	-9	i	i	COc1ccc(C)cc1NC(=O)CSc1nnnn1Cc1ccccc1
-12	.	-3	.	.	COc1ccc(Nc2c(C)cccc2C)cc1
6	i	-1	i	i	CN(C)S(=O)(=O)Nc1ccc(Br)cc1F
17	.	8	.	.	Cn1c(=O)oc2cc(S(=O)(=O)NCCC(=O)Nc3ccc4c(c3)OCCO4)ccc21
2	i	0	i	i	COc1ccc(-c2cc3c(=O)n(CC(=O)NC4CCN(Cc5ccccc5)CC4)ncn3n2)cc1
1	i	0	i	i	Cn1c(=O)c2[nH]c(NCC3CCCO3)nc2n(-c2ccccc2)c1=O (stereo unspecified)
-6	.	-1	.	.	CC1(C)N=C(c2cccc(F)c2)C(=O)N1
5	.	-1	.	.	CCCn1c(=S)[nH]c2cc(C(=O)N3CCN(c4ccccc4OC)CC3)ccc2c1=O
0	.	-1	.	.	Cc1ccc(-n2cc(-c3ccccc3)[nH]c2=O)cc1F
3	i	3	i	i	CCc1c(C(=O)NCCc2ccc(OC)c(OC)c2)[nH]c(C)c1C(C)=O
5	.	6	.	.	COC(=O)CN1C(=O)C(O)(CC(=O)c2cccc(Br)c2)c2ccccc21 (stereo unspecified)
11	i	5	i	i	Cc1noc(/C=C/N(C)C)c1S(=O)(=O)N1CCc2ccccc21
1	i	-3	i	i	COc1cccc(-c2nc(CS(=O)(=O)CC(=O)N3CCN(c4ccccn4)CC3)c(C)o2)c1
-12	i	-7	i	i	COc1ccc(S(=O)(=O)N2CCCC2C(=O)Nc2ccc(O)cc2)cc1 (stereo unspecified)
8	.	14	.	.	O=C1CC(c2ccc3c(c2)OCO3)c2cc3c(cc2N1)OCO3 (stereo unspecified)
-1	i	7	i	i	CC(OC(=O)C1CC=CCC1C(N)=O)C(Cl)=C(Cl)Cl (stereo unspecified)
-2	.	-5	.	.	O=C(NCCN1CCCC1)c1cc(-c2ccncc2)nc2ccc(S(=O)(=O)N3CCOCC3)cc12
1	.	6	.	.	C=CCN1C(=O)CSc2ccc(C(=O)OCC)cc21
-1	.	47*	.	.	CCCC(=O)Nc1cc(-c2cn3cccnc3n2)ccc1OC

# Later entries.
FPR binder	VCAM-1 down imaging	FPRL1 ligand	VCAM-1 augmentation	VCAM-1 inhibition	mol
2	.	0	.	.	COc1ccc(N2C(N)=NC(N)=NC23CCCC3)cc1
-2	i	4	i	i	COC1=CC(=O)CC(C)C12Oc1c(Cl)c(OC)cc(OC)c1C2=O (stereo unspecified)
-1	.	-1	.	.	COC(=O)C(C)Sc1nnc(Cc2cc(=O)[nH]c(=O)[nH]2)n1-c1cc(C)ccc1C (stereo unspecified)
9	.	8	.	.	COc1ccc(CN2CCN(C(=O)c3cccs3)CC2)cc1
-1	i	4	i	i	Cc1cccc(CC(=O)Nc2c3c(nn2-c2cccc(Cl)c2)CS(=O)C3)c1 (stereo unspecified)
0	i	0	i	i	Cc1nc(C)c(C(=O)OCC(=O)N2CCN(c3ccccc3)CC2)s1
0	i	0	i	i	C=CCN1C(=O)CS/C1=N/c1nccs1
0	i	3	i	i	Cc1cc(O)c(NC(=O)c2ccc(Br)o2)cc1C

# Source: PubChem
